Compound activity deposited in PubChem BioAssay by National Center for Advancing Translational Sciences (NCATS).
StopGo reporter = FMDV 2A StopGo reporter, luciferase signal | human cells with a luciferase reporter of 2A StopGo recoding; control for the full effect not named in the record | Potency, µM (highest dose often 57.9 µM), for inactives: at the top dose signal change, negative = less light | actives 1.2% (n = 410,000) | AID 1159524; active = well fitted falling curve with a large enough effect; inconclusive = small, poorly fitted or top-dose-only effect; inactive = no such curve, though single readings can be large or run the other way; tested in HEK293T cells; also: % is scaled to controls: 0 for no effect and ±100 for the full control effect; nearly all actives have a fitted effect of over 45% in size; luciferase light after 4 h
NS1 inh = blocks influenza NS1 protein function | AID 2326 | S. cerevisiae slowed by influenza A NS1, growth recovery by OD600 | Potency, µM (top dose mostly 46.1 µM), inactives show at the top dose activity, positive = more growth | actives 0.4% (n = 270,000); also: actives are rising curves; nearly all actives have a fitted effect of over 50% in size
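Growth recovery, yeast-based: influenza A NS1 expressed in S. cerevisiae causes slow growth, and suppressors are detected by OD600. The parent strain without NS1 is used as positive control.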
SARS PLpro yeast = blocks SARS-CoV papain-like protease in a yeast assay | S. cerevisiae expressing SARS-CoV PLpro, growth rescue; control for the full effect not named in the record | Potency, µM (doses to about 32.9 µM), for the others: top-dose activity, positive = growth rescue | actives 0.19% (n = 330,000); also: 0% is about no effect; nearly all actives have a fitted effect of over 55% in size; growth read by luminescence after 48 h
Lassa entry inh = inhibitors of Lassa virus binding or cell entry; Potency, µM (titrated, usually from 37.9 µM), for the others: top-dose activity change, negative = inhibition, usual class: inhibitors; actives 1.2% (n = 300,000); Lassa virus pseudotype entry inhibition, cell reporter; control for the full effect not named in the record; active means well fitted inhibition curve with a large enough effect; inconclusive means small, poorly fitted or top-dose-only effect, or effect the other way; inactive means flat fitted curve, though single readings scatter; tested in HEK293 cells; also: % is scaled to controls: 0 for no effect and ±100 for the full control effect; nearly all actives have a fitted effect of over 50% in size; luciferase read-out
Cruzain Triton = inhibitors of Trypanosoma cruzi cruzain with detergent; P25779; purified cruzain, Z-FR-AMC fluorescence, 0.01% Triton; Potency, µM, inactives show max response, negative = inhibition, actives largely listed as inhibitors; actives 0.43% (n = 200,000); AID 1478; active = well fitted curve in the direction sought with a large enough effect; inconclusive = small, poorly fitted or top-dose-only effect, or another doubt; inactive = no such curve, though single readings can be large; an effect the other way counts as inactive or inconclusive;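 also: plate controls were neutral wells for no effect and buffer without enzyme for full effect; nearly all actives have a fitted effect of over 40% in size; top concentration of the series not given in the record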
Target sequence (P25779 123-467 limits assumed): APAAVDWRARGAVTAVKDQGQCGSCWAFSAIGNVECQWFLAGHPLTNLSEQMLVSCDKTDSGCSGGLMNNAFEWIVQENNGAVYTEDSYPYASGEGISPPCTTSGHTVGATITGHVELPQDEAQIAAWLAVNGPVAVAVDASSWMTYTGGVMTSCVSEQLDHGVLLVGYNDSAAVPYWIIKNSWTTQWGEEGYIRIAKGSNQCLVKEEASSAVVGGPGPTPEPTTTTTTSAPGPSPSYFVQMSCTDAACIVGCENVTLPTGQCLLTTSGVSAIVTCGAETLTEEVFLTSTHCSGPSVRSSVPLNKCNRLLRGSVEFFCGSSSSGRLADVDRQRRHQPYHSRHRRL
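Z-FR-AMC hydrolysis (2 uM substrate) by cruzain (1.5 nM) monitored kinetically at ex 360/em 450 nm after 15 min room-temperature compound exposure; 0.01% Triton X-100, pH 5.5, 5 mM DTT.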
Cruzain inh noDet = inhibitors of Trypanosoma cruzi cruzain without detergent; purified cruzain, Z-FR-AMC fluorescence, no detergent; Potency, µM, for the others: max response, negative = inhibition, actives largely listed as inhibitors; actives 2.3% (n = 200,000); AID 1476; active = well fitted curve in the direction sought with a large enough effect; inconclusive = small, poorly fitted or top-dose-only effect, or another doubt; inactive = no such curve, though single readings can be large; an effect the other way counts as inactive or inconclusive;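 also: plate controls were enzyme without inhibitor for no effect and buffer without enzyme for full effect; nearly all actives have a fitted effect of over 40% in size; top concentration of the series not given in the record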
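Detergent-free condition (0.00005% Triton X-100) in acetate buffer pH 5.5 with DTT. 1.5 nM enzyme and compound were pre-mixed 15 min, then 2 uM Z-FR-AMC substrate added; reaction progress from fluorescence change between first and third reads (60 s).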
Marburg entry inh = blocks Marburg virus binding to or entry into cells; Marburg virus pseudotyped entry inhibition, cell reporter; control for the full effect not named in the record; about a third of the inactives were read at about 46 µM; Potency, µM (series often up to 37.8 µM), without a hit: at the top dose activity change, negative = inhibition, hits mostly inhibitors; actives 1.8% (n = 300,000); AID 540276; active = well fitted inhibition curve with a large enough effect; inconclusive = small, poorly fitted or top-dose-only effect, or effect the other way; inactive = flat fitted curve, though single readings scatter; tested in HEK293 cells; about a fifth of its hits are not listed in these tables; also: % is scaled to controls: 0 for no effect and ±100 for the full control effect; luciferase read-out
RE007 growth inh = less growth of the S. pombe RE007 Vpr strain | S. pombe RE007 Vpr strain, BacTiter-Glo ATP luminescence, 24 h; control for the full effect not named in the record | Potency, µM (series often up to 92.2 µM), without a hit: at the highest dose activity change, negative = less growth | actives 0.21% (n = 360,000); active = well fitted falling curve with a large enough effect; inconclusive = small, poorly fitted or top-dose-only effect; inactive = no such curve, though single readings can be large or run the other way;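 also: % is scaled to controls: 0 for no effect and ±100 for the full control effect; nearly all actives have a fitted effect of over 50% in size; the assay follows cell death caused by Vpr and the record does not say whether a fall means rescue or toxicity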
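Fission yeast strain RE007, carrying one chromosomally integrated HIV-1 vpr copy, was seeded at OD 0.01 in PMG+AL medium with 23 nL pinned compound. After 24 h at 30 °C and 99% humidity, viability was read by BacTiter-Glo luminescence.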
The depositor's hits bear a star; ? = inconclusive; . = not tested or not shown; [ ] = remark or other dose. Unless noted, calls follow the shape of the dose curve; as a rule, active means well fitted rising curve with a large enough effect; inconclusive means small, poorly fitted or top-dose-only effect; inactive means no such curve, though single readings can be large or run the other way. Potency is read from the fitted curve at half-maximal effect.

SMILES	StopGo reporter	NS1 inh	SARS PLpro yeast	Lassa entry inh	Cruzain Triton	Cruzain inh noDet	Marburg entry inh	RE007 growth inh
COc1ccc(OC)c(S(=O)(=O)N2CCC(C(=O)NC3CCCC3)CC2)c1	-5%	3%	2%	?	.	.	7%[46.1 µM]	-8%
CCOC(=O)c1ccc(CN(Cc2ccc(Br)cc2)S(=O)(=O)c2cccc(C(F)(F)F)c2)cc1	?	.	.	-8%[46.1 µM]	0.6%	-9%	.	.
C(=N\N1CCOCC1)/c1cccs1	-3%	5%	-19%	17%	-1.2%	1%	-2%	1%
CC(C)(C)OC(=O)N1CCC(c2c(C(=O)NCc3ccco3)cnn2-c2ccccc2)CC1	4%	.	.	-22%[46.1 µM]	-4.5%	2%	.	.
CS(=O)(=O)c1cnc(-c2ccccc2)nc1Sc1ccc(F)cc1	17%	11%	0%	1%[46.1 µM]	.	.	?	4%
O=C(Nc1ccc(F)c(F)c1)c1ccc(F)c(S(=O)(=O)N2CCOCC2)c1	.	-1%	6%	.	-0.5%	-2%	0%	.
Cc1ccc(CC2CC(=O)N(c3cc(C)ccc3C)C2=O)cc1 (centres undefined)	-17%	-13%	-4%	.	.	.	.	-15%
O=S(=O)(c1ccc2ccccc2c1)N1CCNCC1	8%	3%	6%	-15%	.	.	?	9%
CCN(C(=O)c1ccc(NC(=O)Cc2ccccc2)cc1)c1ccccc1	-18%	-3%	-7%	-24%	.	.	3%	41%
CC(C(=O)OCC(=O)c1c(N)n(C)c(=O)n(C)c1=O)N1C(=O)c2ccccc2C1=O (centres undefined)	-14%	3%	13%	?	-3.0%	11%	30%	-11%
Cn1c(CCCNC(=O)c2ccccc2)nc2ccccc21	-17%	-4%	4%	-2%	1.7%	5%	?	-8%
Cc1ccc2[nH]c(=O)c3cc(C(=O)N4CCN(c5ccccc5)CC4)sc3c2c1	25%	.	.	-26%[46.1 µM]	-0.2%	-5%	?	.
O=c1oc2ccccc2c(Nc2ccc(Cl)cc2)c1[N+](=O)[O-]	2%	2%	0%	.	.	.	.	-17%
CC(C)(C)[C@@H]1C=C(C(=O)N2CCOCC2)O[C@H](OCc2ccc(CO)cc2)C1	-15%	-1%	0%	.	.	.	.	3%
COC1OC(O)C(NC(=O)C(F)(F)F)CC1O (centres undefined)	-25%	.	.	16%	.	.	-2%	-13%
CCOC(=O)c1c(C)n(Cc2ccc(F)cc2)c2ccc(O)cc12	?	2%	0%	.	.	.	.	-1%
O=C(Nc1ccccc1)N1CCCC2CCCCC21 (centres undefined)	0%	16%	-19%	?	-1.2%	-10%	?	9%
CCOC(=O)C1CCCN(C(=S)Nc2ccc(Nc3ccccc3)cc2)C1 (centres undefined)	-14%	3%	-1%	?	.	.	.	-1%
O=C(NC1CC(=O)N(c2ccc3c(c2)OCCO3)C1)c1c(F)cccc1Cl (centres undefined)	-4%	.	.	0%[46.1 µM]	-5.5%	-19%	.	.
COc1ccccc1-n1c(O)c(/C=N/NC(=S)Nc2ccccc2)c(=O)[nH]c1=S	24%	9%	-1%	.	.	.	.	5%
COCc1cc(C)nc2sc(C(=O)N3CCN(c4ccccc4)CC3)c(N)c12	-16%	-47%	-25%	.	-4.5%	17%	.	3%
O=C1C(NS(=O)(=O)c2cccs2)=C(N2CCN(c3ccccc3)CC2)C(=O)c2ccccc21	-20%	10%	5%	?	0.2%	?	12%	-1%
CCOC(=O)c1nn(-c2cccc(Cl)c2)c2nc(CC(C)C)c(C#N)c(=O)n12	0%	10%	-23%	-3%	-7.9%	0%	-11%	-1%
N#Cc1ccc(Oc2cnccn2)cc1	11%	4%	-1%	3%	.	.	?	-19%
Cc1occc(=O)c1OCc1ccccc1	7%	.	3%	-25%	.	.	12%[46.1 µM]	-2%

The results go on.
SMILES	StopGo reporter	NS1 inh	SARS PLpro yeast	Lassa entry inh	Cruzain Triton	Cruzain inh noDet	Marburg entry inh	RE007 growth inh
O=C(NC1CCCC1)c1nc2c(nnn2Cc2ccccc2Cl)c(=O)[nH]1	.	-5%	-6%	-14%	1.7%	-29%	1%	-5%
Nc1nn(S(=O)(=O)c2cccc3nsnc23)cc1-c1ccc(Br)cc1	-21%	?	-6%	-2%	-8.3%	?	?	-6%
CCCCN(Cc1ccco1)S(=O)(=O)c1ccc(-c2ccc(=O)[nH]n2)s1	-4%	-6%	-5%	?	.	.	-17%[46.1 µM]	14%
CCOc1ccccc1N1CCN(S(=O)(=O)c2ccc(C3CCCCC3)cc2)CC1	0%	.	.	?	0.2%	2%	?	.
COc1ccc(CNC(C)Cc2cccs2)cc1 (centres undefined)	-4%	.	3%	-21%	.	.	-4%	-1%
COCC(C)n1c(SCc2cc(=O)n3cc(C)ccc3n2)nc2ccccc2c1=O (centres undefined)	-29%	.	0%	6.3µM*	.	.	5µM*	13%
Cn1c(=O)oc2cc(S(=O)(=O)N3CCN(C(=O)c4ccco4)CC3)ccc21	-6%	25%	.	10%	.	.	-4%	-10%
Cc1ccc(S(=O)(=O)N2CCN(C(=O)CC(C)n3cncn3)CC2)cc1C (centres undefined)	-6%	?	4%	2%	.	.	15%[46.1 µM]	-11%
NC(=O)c1cc(S(=O)(=O)Nc2cccc(Cl)c2)cs1	27%	-1%	2%	13%[46.1 µM]	.	.	-1%[46.1 µM]	-4%
Cc1nc(C)c(C(=O)OCC(=O)Nc2cccc(C)c2C)s1	-16%	.	14%	12%	.	.	?	-3%
CCOc1cc(/C=N\O)cc(Cl)c1OCC	-13%	-4%	-47%	0%	-5.1%	3%	1%	-23%
COc1ccccc1NC(=O)CC(c1cc(OC)c(OC)c(OC)c1)N1Cc2ccccc2C1=O (centres undefined)	45%[activator]	.	.	10%[46.1 µM]	-3.4%	2%	.	.
CCCc1cc(=O)[nH]c2nnc(SCC(=O)Nc3cc(C)on3)n12	-13%	.	5%	11%	.	.	-12%[46.1 µM]	8%
CCOC(=O)NC(=O)/C(C#N)=N\Nc1cccc(Cl)c1	?	-54%	-3%	?	.	.	-3%[46.1 µM]	3%
CCOC(=O)CN1C(=O)COc2ccc(Cl)cc21	5%	-1%	-4%	1%	-0.6%	-3%	23%	-5%
CCN(CC(=O)Nc1c(F)cccc1F)C(=O)c1ccc2c(=O)n3c(nc2c1)CCC3	3%	.	-1%	13%	.	.	1%	-11%
COc1cccc(-c2csc(N3CCN(S(=O)(=O)c4ccc(F)cc4)CC3)n2)c1	-19%	1%	-10%	?	-0.3%	25µM*	-29%	-11%
CCSC(=S)Nc1c(C)n(C)n(-c2ccccc2)c1=O	-3%	0%	-1%	2%[46.1 µM]	.	.	0%[46.1 µM]	7%
CC(C)Sc1nc2sc(-c3ccccc3)cc2c(=O)n1N	0%	3%	-4%	13%	0.5%	-25%	3%	-10%
COc1ccc(/C=C/C(=O)Oc2ccc(C=O)cc2OC)cc1	0%	.	.	-11%	.	.	-19%	-19%
CCn1c(SC(C)C(=O)Nc2nnc(C)s2)nnc1-c1ccco1 (centres undefined)	6%	-2%	10%	.	.	.	1%[46.1 µM]	0%
O=C1CSC(c2c(F)cccc2Cl)N1c1cccc(F)c1 (centres undefined)	-21%	-1%	6%	25%	0.7%	-10%	5%	8%[3.69 µM]
Cc1ccc(COC(=O)c2ccc3c(c2)C(=O)N(CCCN2CCOCC2)C3=O)cc1	-19%	6%	1%	.	.	.	.	-6%
COc1cc2[nH]c(=S)nc(NCCCOC(C)C)c2cc1OC	-1%	2%	1%	-1%	-0.8%	1%	?	-26%
O=C(CCc1ccccc1)N1CCc2c([nH]c3ccccc23)C1c1ccc(F)cc1 (centres undefined)	2%	.	.	?	0.4%	?	.	.

Later entries:
SMILES	StopGo reporter	NS1 inh	SARS PLpro yeast	Lassa entry inh	Cruzain Triton	Cruzain inh noDet	Marburg entry inh	RE007 growth inh
COc1ccc(Cl)cc1NC(=O)C/C(C)=N/NC(=O)C(=O)NCc1ccccc1	-9%	-3%	-6%	?	.	.	-1%[46.1 µM]	-18%
Cc1nc(NCCc2ccccc2)c2nnn(Cc3ccccc3)c2n1	-14%	27%	3%	.	.	.	.	-7%
Cc1ccc(S(=O)(=O)CCC(=O)N2CCN(c3nc4c(C)c(C)ccc4s3)CC2)cc1	?	.	.	-2%[46.1 µM]	-1.5%	-16%	.	.
CC#CP(=O)(OCC)C(O)(c1ccccc1)C(F)(F)F (centres undefined)	0%	8%	3%	12%	4.3%	13%	-25%	11%
O=C(CC12CC3CC(CC(C3)C1)C2)N/N=C/c1ccc([N+](=O)[O-])o1	-29%	5%	16%	16µM*	-1.4%	-11%	?	-15%
Cc1ccc(OCC(=O)N(C)CC(=O)Nc2ccc(F)c(F)c2F)cc1	-6%	.	-2%	?	.	.	18%	4%
COc1ccc(/C=N\NC(=O)c2ccccc2Cl)cc1COc1c(F)c(F)c(F)c(F)c1F	?	4%	?	?	.	.	?	4%
COC(=O)[C@@]1(Cc2ccc(OC)cc2)[C@H]2c3cc(C(=O)N4CCCC4)n(Cc4cc(C)n(C)n4)c3C[C@H]2CN1C(=O)c1ccccc1	-17%	.	.	.	5.8%	?	.	0%
COc1cccc(NC(=S)N2CCC(c3ccc(C)cc3)C2)c1 (centres undefined)	-2%	0%	-5%	?	.	.	?	-21%
COc1cc2c(cc1NC(=O)c1ccncc1)oc1ccccc12	11%	-110%	-7%	13%	-8.6%	?	-1%	12%
CCOC(=O)C1=C(c2ccccc2)Nc2ncnn2C1c1ccccn1 (centres undefined)	4%	4%	13%	-3%	4.4%	-2%	-15%	3%
O=C(c1cc(=O)c2ccccc2o1)N1CCN(c2ccccc2F)CC1	15%	.	-5%	17%	.	.	0%[46.1 µM]	-1%
O=C(c1ccc2c(=O)n(CCc3ccccc3)c(=O)[nH]c2c1)N1CCN(c2ccccc2)CC1	-26%	-1%	0%	?	.	.	10%[46.1 µM]	12%
CC(NC(=O)CCC(=O)NC(C)c1ccccc1)c1ccccc1 (centres undefined)	-6%	2%	8%	.	.	.	.	4%
